# High-throughput results from PubChem.
# miR-21 reporter: raises the signal of a miR-21 reporter; HeLa miR-21 FLuc reporter, luciferase, 48 h; Potency, µM (doses to about 38.3 µM), inactives show at the top dose reporter change, positive = more light; 340,000 tested, under 10 active; active = well fitted rising curve with a large enough effect; inconclusive = small, poorly fitted or top-dose-only effect; inactive = no such curve, though single readings can be large or run the other way;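 also: % of control where 0% means no effect; miR-21 action dims this reporter so a rising signal means less miR-21 action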
#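 Compounds were titrated across several concentrations (up to approximately 40 uM) and incubated 48 hours with HeLa miR-21-FLuc reporter cells (miR-21 target sequence downstream of FLuc, endogenous miR-21). Readout was firefly luciferase luminescence after lytic detection reagent.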
# Rango complex inh: prevents formation of the Rango-importin beta complex | Q14974 | Rango CFP/YFP FRET sensor + importin beta, 45 min | Potency, µM (highest dose often 92.2 µM), without a hit: top-dose inhibition of complex formation | hit rate 0.031% among 340,000 | AID 540263; active = rising FRET ratio curve, often small or poorly fitted; inconclusive = mostly compound fluorescence or quenching in the first reads; inactive = flat curves in all reads;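 also: potency is read from the fitted curve at half-maximal effect; 0% = DMSO wells and 100% = buffer wells lacking importin beta; nearly all actives have a fitted effect of over 15% in size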
# Target sequence (Q14974 whole entry, looked up): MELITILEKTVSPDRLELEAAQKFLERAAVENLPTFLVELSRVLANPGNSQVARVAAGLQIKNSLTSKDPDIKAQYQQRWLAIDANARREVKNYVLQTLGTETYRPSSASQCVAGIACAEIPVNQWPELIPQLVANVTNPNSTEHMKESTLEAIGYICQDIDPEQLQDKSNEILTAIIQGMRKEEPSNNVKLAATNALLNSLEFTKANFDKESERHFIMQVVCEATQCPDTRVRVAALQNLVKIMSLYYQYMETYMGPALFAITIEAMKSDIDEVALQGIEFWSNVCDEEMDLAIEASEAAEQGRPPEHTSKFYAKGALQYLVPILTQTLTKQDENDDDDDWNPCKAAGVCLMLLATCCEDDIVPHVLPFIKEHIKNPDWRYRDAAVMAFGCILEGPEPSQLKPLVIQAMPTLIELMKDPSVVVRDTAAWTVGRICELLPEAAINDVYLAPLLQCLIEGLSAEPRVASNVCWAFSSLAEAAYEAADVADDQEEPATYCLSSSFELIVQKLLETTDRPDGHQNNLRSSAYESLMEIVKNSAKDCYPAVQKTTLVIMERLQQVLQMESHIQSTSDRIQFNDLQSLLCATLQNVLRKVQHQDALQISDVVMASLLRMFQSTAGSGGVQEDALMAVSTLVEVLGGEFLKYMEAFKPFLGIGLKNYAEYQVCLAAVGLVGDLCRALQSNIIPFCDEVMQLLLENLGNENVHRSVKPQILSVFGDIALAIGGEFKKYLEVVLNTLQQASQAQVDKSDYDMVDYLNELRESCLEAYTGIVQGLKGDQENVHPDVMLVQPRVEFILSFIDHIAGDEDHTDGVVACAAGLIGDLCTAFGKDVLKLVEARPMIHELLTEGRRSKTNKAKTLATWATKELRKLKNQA
#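 FRET biosensor Rango (snurportin 1 IBB between N-terminal EYFP and C-terminal Cerulean), 50 nM in PBS/1 mM DTT/0.02% Tween-20/0.1% BSA, preincubated 5 min RT with compound; 0.125 microM importin beta added, 45 min RT, CFP/YFP FRET ratio read.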
# GLA inh pH 4.5: inhibitors of human alpha-galactosidase A at pH 4.5; P06280; purified enzyme, 4-MU-alpha-Gal fluorescence, pH 4.5; activity change, negative = inhibition, % at 105 µM; 230,000 tested, under 10 active; AID 1467; inconclusive = small, poorly fitted or top-dose-only inhibition, or a rising curve; inactive = flat fitted curve, though single readings scatter; no compound was filed as active;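 also: 0% = full activity with enzyme and -100% = basal without enzyme; dose as in the result columns while the protocol names 77 µM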
# Rango dissoc inh: inhibitors of RanGTP-induced Rango-importin beta complex dissociation; O95149+P62826; Biochemical FRET Rango-importin beta, RanGTP-induced dissociation; Potency, µM (series often up to 46.1 µM), for the others: top-dose activity change, negative = inhibition; hit rate 0.071% among 340,000; active means falling FRET ratio curve, often poorly fitted, with flat reads before Ran was added; inconclusive means other falling curves, or compound fluorescence or quenching; inactive means flat or rising ratio curve;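 also: potency is read from the fitted curve at half-maximal effect; % of control where 0% means no effect; nearly all actives have a fitted effect of over 45% in size; -100% = wells without RanGTP and RCC1; the record marks most hits as doubtful in a second field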
#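 Quantitative HTS using a FRET biosensor: 0.1 uM Rango, 0.25 uM importin beta, 0.6 uM Ran, 2 mM GTP, 0.2 uM RCC1 final, PBS with DTT, Tween-20 and BSA. Post-read taken 45 min after Ran addition.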
# Starred values were filed as active, the others as inactive; ? = inconclusive; nt = no result given.
Rango dissoc inh	GLA inh pH 4.5	canonical_smiles	Rango complex inh	miR-21 reporter
1%	-5	Cc1cc(C(=O)N/N=C/c2ccc(N(C)C)cc2)c2ccccc2n1	0.8%	17%
-7%	-5	Cc1cc(C(=O)NCc2ccc(F)cc2)n(-c2ccccc2)n1	-2.2%	0%
1%	nt	COc1ccc(OCC(O)CNC2CCCC2)cc1 (stereo not drawn)	0.4%	-1%
6%	3	CC1CCC(N(C(=O)c2csnn2)C(C(=O)NC(C)(C)C)c2cccnc2)CC1 (stereo not drawn)	0.6%	0%
-18%	0	Cc1c(-c2nc(-c3ccncc3)no2)cccc1[N+](=O)[O-]	-3.6%	-18%
-14%	4	COc1cccc(OC)c1C(=O)Nc1cccnc1	-0.4%	0%
-6%	-9	Cc1cnc(C(=O)N2CCc3c([nH]c4ccccc34)C2c2ccc(F)cc2)cn1 (stereo not drawn)	-0.5%	5%
5%	6	CCOc1ccc(CN(C)C(=O)CCl)cc1	-0.3%	?
-8%	nt	CCC(C(=O)NCC1CCCO1)n1nc(C)c2sc3ccccc3c2c1=O (stereo not drawn)	-2.7%	4%
-11%	-4	CCS(=O)(=O)N1CCN(c2ccnc3cc(Cl)ccc23)CC1	0.8%	-3%
1%	nt	COc1ccc(/C=C2\SC(=S)N(CCC(=O)NCCc3ccc(O)cc3)C2=O)cc1	0.6%	0%
23%	nt	O=C1CSC(c2cccc(O)c2)N1Cc1ccccc1 (stereo not drawn)	1.6%	4%
-16%	-18	O=C(NCCNS(=O)(=O)c1ccccc1)c1cc(OCC(F)(F)F)ccc1OCC(F)(F)F	2.2%	-5%
28%	nt	CN(C(=O)c1ccc(NC(=O)Cc2ccc(NC(=O)C3CCCN(C(=O)C4CCC4)C3)cc2)cc1)C1CC1 (stereo not drawn)	0.3%	nt
?	-1	COc1cc(-c2nnc(SCc3cc(=O)oc4cc(O)c(O)cc34)o2)cc(OC)c1OC	?	-2%
-22%	7	O=C(CC1C(=O)NCCN1Cc1ccc(Cl)c(F)c1)NCCc1cccnc1 (stereo not drawn)	0.3%	3%
2%	6	COc1ccc(NC(=O)CCN2C(=O)c3ccccc3S2(=O)=O)cc1	-0.4%	-9%
-6%	nt	O=C(CN1CCN(C2CCS(=O)(=O)C2)CC1)N1N=C(c2ccc(Cl)cc2)CC1c1ccco1 (stereo not drawn)	0.3%	nt
-6%	0	CC(C)Cc1ccc(/C(=N/O)C(=O)O)s1	0.7%	-10%
-3%	1	COCCNC(=O)C(OC(=O)c1ccco1)c1ccccc1OC (stereo not drawn)	4.4%	-5%
1%	nt	O=C(Nc1nnc(SCCN2CCOCC2)s1)C1CC(=O)N(c2ccccc2)C1 (stereo not drawn)	3.9%	-6%
-2%	7	CCc1nnc(NC(=O)c2ccc(S(=O)(=O)N3CCCCCC3)cc2)s1	-0.2%	-5%
14%	nt	COc1ccc(CNC(=O)CCCn2nc(C)c3c(C)n(-c4ccc(C)cc4)nc3c2=O)cc1	0.3%	2%
-7%	2	Cc1ccc(S(=O)(=O)N2CCOC2CNC(=O)C(=O)NCc2ccncc2)cc1 (stereo not drawn)	-3.6%	0%
1%	-3	COC(=O)c1nn(-c2ccccc2)c(Cl)c1/C=N/OCc1ccc(Cl)cc1Cl	-0.4%	0%
12%	7	COc1ccc(C2C(C(=O)O)CCC(=O)N2c2ccc(OC)cc2)cc1 (stereo not drawn)	0.8%	-1%
3%	-1	COc1ccc2oc(=O)c(NC(=O)C3CCCCC3)cc2c1	-0.4%	-9%
-17%	-7	COC(=O)c1ccc(C2C(C#N)=C(C)NC3=C2C(=O)CC(C)(C)C3)cc1 (stereo not drawn)	?	-12%
17%	nt	CC(Sc1nnc(-c2ccc(OC(F)F)cc2)n1N)C(=O)NCC1CCCO1 (stereo not drawn)	-1.8%	nt
7%	9	COc1cc(C2NC(=O)NC(c3ccccc3)=C2C(C)=O)cc([N+](=O)[O-])c1O (stereo not drawn)	-1.5%	3%
-1%	nt	CC(C)CN1Cc2ccccc2Oc2cc(Br)ccc2S1(=O)=O	3.3%	nt
?	-2	CCOC(=O)N1CCN(CC(O)COc2ccc(OC)cc2C(C)(C)C)CC1 (stereo not drawn)	0.2%	-1%
1%	-4	COc1ccccc1OCCOCCn1cnc2ccccc2c1=O	0.3%	-2%
-6%	1	C=CCNC(=O)CSc1nc2sc(C)c(C)c2c(=O)[nH]1	-0.8%	-12%
-8%	0	CC1Cc2ccccc2N1C(=O)Cn1c(=O)cc(O)c2ccccc21 (stereo not drawn)	-1.3%	-1%
-6%	7	Cc1ccc2c(c1)c(N=O)c(O)n2Cc1ccc(Cl)cc1	1.1%	11%
?	-27	COc1ccc2[nH]cc(/C=C(/C#N)S(=O)(=O)c3ccccc3)c2c1	?	1%
1%	-2	CSc1ccccc1C(=O)C1CCCN(C(=O)CCN2CCCO2)C1 (stereo not drawn)	-1.3%	-2%
7%	3	COc1ccc2c(=O)c(C(=O)NCCc3ccc(OC)c(OC)c3)c[nH]c2c1	0.1%	-1%
0%	1	Cc1ccc(Cl)cc1NC(=O)C1CCCN(S(=O)(=O)c2c(C)noc2C)C1 (stereo not drawn)	-0.9%	1%
-7%	-10	CC(/C=N/NC(=O)CSc1nnc(SCc2ccccc2)s1)=C\c1ccco1	-2.0%	0%
?	?	Cc1ccc(C)c(-n2c3nc(=O)n(C)c(=O)c-3cc3ccccc32)c1	?	-2%
12%	-1	Nc1ccc(NC(=S)Nc2ccccc2)cc1	-3.5%	-9%
2%	9	CCCOc1c(OC)cc(Cl)cc1C1NC(=O)NC(C)=C1C(=O)NCc1ccccc1 (stereo not drawn)	-1.3%	-1%
4%	nt	CCc1ccccc1NC(=O)Nn1cnnc1	-2.9%	-2%
12%	nt	NC(=O)C1CCCN(CC(=O)N2CCN(c3ccccc3)CC2)C1 (stereo not drawn)	2.7%	-1%
-12%	nt	Cc1ccc2c(c1)cc1c(=O)n(CC(=O)NCCCc3ccccc3)nc(C)n12	0.4%	0%
17%	nt	CCN(C[C@H]1N[C@@](C)(C(=O)OC)[C@H]2C(=O)N(C)C(=O)[C@@H]12)C(=O)c1ccccc1	-0.8%	nt

# Five entries from above, as tab-separated lines.
canonical_smiles	Rango dissoc inh	GLA inh pH 4.5	Rango complex inh	miR-21 reporter
CC(/C=N/NC(=O)CSc1nnc(SCc2ccccc2)s1)=C\c1ccco1	-7%	-10	-2.0%	0%
CCN(C[C@H]1N[C@@](C)(C(=O)OC)[C@H]2C(=O)N(C)C(=O)[C@@H]12)C(=O)c1ccccc1	17%	nt	-0.8%	nt
Cc1ccc(C)c(-n2c3nc(=O)n(C)c(=O)c-3cc3ccccc32)c1	?	?	?	-2%
NC(=O)C1CCCN(CC(=O)N2CCN(c3ccccc3)CC2)C1 (stereo not drawn)	12%	nt	2.7%	-1%
CCc1ccccc1NC(=O)Nn1cnnc1	4%	nt	-2.9%	-2%

# The list continues:
Rango dissoc inh	GLA inh pH 4.5	canonical_smiles	Rango complex inh	miR-21 reporter
3%	nt	COc1ccc(C(=O)NCCOc2ccccc2)cc1S(=O)(=O)N1CCOCC1	-2.7%	nt
31%	11	O=[N+]([O-])c1ccc(S(=O)(=O)NCCc2ccncc2)cc1	8.2%	3%
-1%	1	Cc1ccc(-c2nn(CC(=O)NN3CCOCC3)c(=O)c3ccccc23)cc1	-0.5%	-5%
-8%	-11	Cc1c(C(=O)Nn2cnnc2)oc2ccccc12	0.1%	-4%
16%	0	CC(=O)Nc1ccc(S(=O)(=O)Nc2c(C)nn(-c3ccccc3)c2C)cc1	-2.5%	10%
-5%	5	c1ccc(Oc2ncnc3sccc23)cc1	1.7%	-14%
-19%	-6	COc1ccc(Cc2nc3ccc(S(=O)(=O)N4CCOCC4)cc3[nH]2)cc1	-0.6%	-3%
-17%	-7	CCCCC(=O)Nc1nnc(-c2ccc(OC)cc2)s1	-0.6%	-20%
-16%	nt	CC#Cc1cc2c(cc1O)CCC1C2CCC2(C)C(O)CCC12 (stereo not drawn)	?	nt
3%	-7	CCOc1cc(C(=O)NCC2CCCO2)cc(OCC)c1OCC (stereo not drawn)	-3.4%	-3%
16%	13	CCCCNc1ccc(C(CC(N)=O)NC(=O)c2ccccc2)cc1[N+](=O)[O-] (stereo not drawn)	8.0%	-14%
?	nt	Cc1ccc(C23OCCN2CCn2nc4ccccc4c23)cc1 (stereo not drawn)	?	nt
-1%	1	CC(C)OCCCNc1ncc2c(n1)CC(c1ccc(N(C)C)cc1)CC2=O (stereo not drawn)	2.3%	1%
25%	nt	O=C(C1CCCN(S(=O)(=O)c2cc(Cl)ccc2Cl)C1)N1CCCCCC1 (stereo not drawn)	0.3%	20%
2%	-4	OC1(c2ccc(F)cc2)CCN(Cc2ccccc2)C1 (stereo not drawn)	5.2%	-10%
5%	-3	COc1ccc(C(=O)c2sc(NC(C)C)nc2N)cc1OC	-0.6%	-14%
?	nt	O=C(O)C(=O)/C(=C\c1ccsc1)c1ccc2ccccc2n1	0.0%	-66%
1%	nt	Cc1ccc(OCCC(=O)OCC(=O)NCCc2ccc(Cl)cc2)cc1	-3.3%	nt
-11%	-14	COc1ccc(-c2nnc(-c3cc(OC)c(OC)c(OC)c3)o2)cc1OC	-0.5%	1%
5%	nt	Cc1ccc(NC(=O)CNCc2ccc(Cl)cc2Cl)cc1S(=O)(=O)N(C)C	0.0%	10%
-3%	nt	O=C(CCS(=O)(=O)c1ccccc1)N(CCCN1CCOCC1)c1nc2ccccc2s1	-0.1%	nt
0%	-12	Cc1cc(NC(=O)c2cc(-c3ccc(C)c(C)c3)nc3ccccc23)no1	-1.2%	-3%
-8%	-9	CNc1nc(N)c(C(=O)Nc2cc(C)on2)s1	-0.1%	0%
-3%	8	CCN(Cc1ccccc1)C(=O)COC(=O)c1cc(=O)[nH]c2ccccc12	-1.6%	0%
7%	nt	N#Cc1c(-c2ccc(F)cc2)cc(-c2cccs2)nc1SCC(=O)O	5.0%	-15%
-4%	nt	COc1ccc(C)cc1S(=O)(=O)NCC(c1ccc2c(c1)OCO2)N1CCOCC1 (stereo not drawn)	-3.4%	nt
-10%	nt	CCOc1ccccc1NC(=O)CSc1nc(=O)n(Cc2ccccn2)c2c1CCC2	0.0%	nt
-4%	-30	CC(C(=O)NC1CC(C)(C)NC(C)(C)C1)c1ccc([N+](=O)[O-])cc1 (stereo not drawn)	3.7%	-3%
3%	8	CCOc1ccccc1NC(=O)Nc1ccc(Br)cc1C	0.7%	0%
19%	9	COc1ccc(NC(=O)CC2SC(=N)N(c3ccccc3)C2=O)c(OC)c1 (stereo not drawn)	-2.4%	-1%
12%	nt	Cc1cc(O)cc2c1C1CCC3(C)C(=O)CCC3C1C=C2 (stereo not drawn)	0.4%	nt
-2%	nt	CC[C@]12C(=O)N(C)C[C@H]([C@@H]3C(=O)N(C)C(=O)[C@@H]31)N2C(=O)c1ccc(C(C)(C)C)cc1	0.2%	nt
11%	2	COc1ccc(NC(=O)Cc2c(F)c(F)c(F)c(F)c2F)cc1OC	-1.3%	-3%
-3%	-8	CCCCCNC(=O)c1ccccc1SC	-0.2%	-12%
18%	nt	Cc1nc(N(C)Cc2ccccc2)c2c(C)c(C)sc2n1	0.3%	-3%
8%	-3	ON=Cc1cccn1-c1ccccc1	-0.3%	3%
4%	nt	OCC1(CCc2ccccc2)CCCN(CCCc2ccccc2)C1 (stereo not drawn)	2.3%	6%
1%	9	c1ccc(C2OCC3(CO2)COC(c2ccccc2)OC3)cc1 (stereo not drawn)	5.2%	-4%

# An excerpt from above, showing only Rango complex inh, Rango dissoc inh and GLA inh pH 4.5:
SMILES	Rango complex inh	Rango dissoc inh	GLA inh pH 4.5
Cc1cc(C(=O)NCc2ccc(F)cc2)n(-c2ccccc2)n1	-2.2%	-7%	-5
COc1ccc(OCC(O)CNC2CCCC2)cc1 (stereo not drawn)	0.4%	1%	nt
CC1CCC(N(C(=O)c2csnn2)C(C(=O)NC(C)(C)C)c2cccnc2)CC1 (stereo not drawn)	0.6%	6%	3
Cc1c(-c2nc(-c3ccncc3)no2)cccc1[N+](=O)[O-]	-3.6%	-18%	0
COc1cccc(OC)c1C(=O)Nc1cccnc1	-0.4%	-14%	4
Cc1cnc(C(=O)N2CCc3c([nH]c4ccccc34)C2c2ccc(F)cc2)cn1 (stereo not drawn)	-0.5%	-6%	-9

# A portion of the library, so the mix of outcomes need not match the whole.
